Compound activity as filed in PubChem BioAssay.
INS promoter inh: inhibitors of insulin promoter-driven GFP, primary screen, imaging, TRM-6 cells (human fetal islet line), eGFP reporter, cell count | reporter expression induced with tamoxifen | inhibition, % at 2 µM | actives 0.9% (n = 130,000);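 active means inhibition above the mean plus 3 SD, with well images judged a real hit on visual review, cut at about 60% in these data, passing the limit was not always enough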
HSV augment: enhancers of HSV replication in host cells, fold increase, host cell viability; AID 1956, 2009; maximum fold increase; actives 0.005% (n = 220,000); HSV replication augmentation in cells;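 active means peak rise of 1.5-fold or more in the series; tested in PC3 cells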;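 further: first round at 10 µM; read as green reporter fluorescence; hits show the peak of a series up to 25 µM; 1 = signal of infected wells without compound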
RGS16-Gao: modulators of RGS16 binding to Galphao, primary screen, biochemical, human proteins, multiplexed bead flow cytometry. Regulator of G-protein signaling 16 (Homo sapiens) + Guanine nucleotide-binding protein …. bead-based flow cytometry RGS16-Galphao binding, fluorescence; actives lie on both sides. binding response (% of control), % at 10 µM. actives 0.38% (n = 220,000). AID 1441, 2008;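 active means below 25% or above 175%, edge rows of some plates excepted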;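 further: Galphao activated by GDP with aluminum fluoride before binding; 100% = wells without compound and 0% = beads without RGS; some results beyond the cut were filed as inactive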
GALR2 agonist: GALR2 receptor agonists, primary screen, cell-based; Galanin receptor type 2 (Homo sapiens), O43603; actives 0.48% (n = 140,000); activation, %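 (tested at 5 µM)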; GALR2-expressing cells, agonist activation read-out; AID 803, 2007;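 active means above mean plus 3 SD of all compounds, about 5% in these data, not always enough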;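 further: 0% = vehicle buffer wells and 100% = reference agonist at full effect; tested in CHO reporter cells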
PKD1 kinase inh: inhibitors of human PKD1 kinase, biochemical, fluorescence polarization. actives 0.056% (n = 200,000). inhibition, %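 (about 10 µM by stock and volumes)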. AID 797, 2007. Serine/threonine-protein kinase D1 (Homo sapiens), Q15139. PKD1 kinase fluorescence polarization assay;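 active means inhibition of 50% or more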;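 further: controls were vehicle for no effect and a reference inhibitor for full effect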
Target sequence (Q15139 whole entry, looked up): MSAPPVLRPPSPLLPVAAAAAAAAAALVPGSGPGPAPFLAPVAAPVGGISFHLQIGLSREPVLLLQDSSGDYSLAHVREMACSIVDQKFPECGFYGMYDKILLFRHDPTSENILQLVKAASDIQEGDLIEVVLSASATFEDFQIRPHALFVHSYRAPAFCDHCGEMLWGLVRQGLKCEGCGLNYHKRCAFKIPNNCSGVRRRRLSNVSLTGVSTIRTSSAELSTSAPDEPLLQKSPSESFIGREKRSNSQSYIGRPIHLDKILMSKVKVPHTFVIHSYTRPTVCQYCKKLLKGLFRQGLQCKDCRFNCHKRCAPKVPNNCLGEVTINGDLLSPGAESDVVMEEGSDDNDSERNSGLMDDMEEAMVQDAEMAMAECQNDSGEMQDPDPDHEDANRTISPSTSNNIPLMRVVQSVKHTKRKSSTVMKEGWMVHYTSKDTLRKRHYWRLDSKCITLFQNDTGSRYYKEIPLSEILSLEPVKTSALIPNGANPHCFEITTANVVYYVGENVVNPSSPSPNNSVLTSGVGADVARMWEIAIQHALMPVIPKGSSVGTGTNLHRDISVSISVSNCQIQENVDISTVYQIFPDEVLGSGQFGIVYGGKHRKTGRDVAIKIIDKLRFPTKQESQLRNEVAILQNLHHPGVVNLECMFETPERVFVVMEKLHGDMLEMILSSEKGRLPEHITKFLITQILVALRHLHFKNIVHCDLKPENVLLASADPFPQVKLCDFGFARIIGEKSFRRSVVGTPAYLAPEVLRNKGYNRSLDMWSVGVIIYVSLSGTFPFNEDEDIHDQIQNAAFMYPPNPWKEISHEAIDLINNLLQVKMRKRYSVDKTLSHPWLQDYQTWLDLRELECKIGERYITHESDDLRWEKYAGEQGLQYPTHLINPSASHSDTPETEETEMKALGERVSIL
INS promoter inh cell count: further read-out of INS promoter inh, marked with its call; normalized cell count, %; measured here: cell count, toxicity; reference of the scale not given here;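 cells exposed to compound for 48 h; stained nuclei by imaging scaled within each plate; lower means fewer cells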
HSV augment primary fold: further read-out of HSV augment, marked with its call; fold increase; compound at 10 µM; measured here: primary screen fold increase 10 uM; tested in PC3 cells;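 GFP signal in the first replicate; 1 = infected wells without compound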
The depositor's hits bear a star; i = inactive; / = not tested or not shown.

Order of values – INS promoter inh, INS promoter inh cell count, HSV augment, HSV augment primary fold, RGS16-Gao, GALR2 agonist, PKD1 kinase inh
CCCC(CCC(=O)Nc1ccc(C(=O)OCC)cc1)C(=O)O (stereo unspecified)
 : -16, 169, i, 0.96, 101, -0.9, 3
O=C(O)c1cc(-c2c[nH]c3ccccc23)nc2ccc3ccccc3c12
 : 55, 131, i, 0.99, 102, /, 1
Cc1cccc(NC(=O)CSc2nc3[nH]ncc3c(=O)n2-c2ccccc2)c1
 : 14, 114, i, 0.77, 102, -1.1, -13
COCCSc1nnc(NC(=O)Cc2ccc(OC)cc2)s1
 : /, /, i, 0.97, 92, /, -7
c1ccc(N2CCN(C3CCSC3)CC2)cc1 (stereo unspecified)
 : 0, 149, i, 0.8, 102, -3.1, -11
O=C(CSc1nnc(NC(=O)c2ccco2)s1)Nc1ccccc1
 : /, /, i, 0.93, 101, /, -1
Nc1nc(SCC(=O)NCC2CCCO2)n[nH]1 (stereo unspecified)
 : -11, 72, i, 1.2, 99, 6.1, 9
CCOC(=O)c1[nH]c2ccc(OC)cc2c1NC(=O)c1ccc(OC)c(OC)c1
 : 7, 109, i, 0.93, 168, -1.9, 0
CCCC1(CCC)NC(=O)N(CC(=O)N2CCN(C(=O)c3ccco3)CC2)C1=O
 : 13, 108, i, 0.81, 107, -2.8, 0
O=C(NCc1ccccc1C(F)(F)F)C1CC(c2cc(C(F)(F)F)cc(C(F)(F)F)c2)=NO1 (stereo unspecified)
 : /, /, i, 0.81, 106, /, /
O=C1/C(=C/c2ccncc2)SC(=S)N1C1CCCCC1
 : /, /, i, 0.89, 57, -1.6, 2
CCCN(CC(=O)Nc1ccccc1Br)CC(=O)Nc1ccc(F)c(F)c1F
 : -112, 99, i, 0.95, 101, -0.5, 0
COc1ccc(-c2nc3cccc(C)n3c2NCC2CCCO2)cc1O (stereo unspecified)
 : /, /, i, 0.81, 97, /, -4
O=S(=O)(Cc1ccccc1)N1CCN(C/C=C/c2ccccc2)CC1
 : 2, 102, i, 1.1, 103, -3.1, -4
COCCOC(=O)c1c(NC(=O)CNCc2ccco2)sc(C(N)=O)c1C
 : -124, 90, i, 1.1, 105, /, -4
Cc1ccc2c(CC(=O)NC3=NCCS3)coc2c1
 : 14, 32, i, 1, 104, -2.4, -4
CC(=O)c1cn(CC(=O)NCc2cccnc2)c2ccccc12
 : -5, 94, i, 1.1, 84, 0.5, -10
Nc1ncc([N+](=O)[O-])cc1Br
 : /, /, i, 0.99, 91, /, /
CC(=O)c1ccc(OCC(O)CN2CCOCC2)cc1 (stereo unspecified)
 : /, /, i, 1, 150, -1.9, -12
COc1ccc(/C=C(\CC(=O)O)c2nc3ccccc3s2)cc1O
 : 11, 76, i, 1, 103, /, -2
CC(=O)NC1=NN(C(C)=O)C(C)(CC(=O)OC(C)(C)C)S1 (stereo unspecified)
 : /, /, i, 1.1, 102, /, -3
O=C(CCC(=O)OCC(=O)c1ccc(Br)cc1)Nc1cccc2cccnc12
 : 35, 121, i, 0.9, 99, -1.4, 4
CC(=O)N/C(=C\c1ccc(C)cc1)C(=O)O
 : /, /, i, 0.9, 95, /, 3
O=C(NCc1ccccn1)C(=O)N/N=C/c1ccccc1O
 : /, /, i, 0.81, 90, /, /
CCc1nc2sc3c(O)cc(=O)[nH]c3c2cc1C
 : /, /, i, 1, 103, /, 6
O=C(O)CCN1C(=O)C2CCCCC2C1=O (stereo unspecified)
 : -26, 79, i, 0.87, 101, -1.4, -1
CCOc1ccc(C(=O)Nc2cc(NC(=O)c3ccc(OCC)c(Cl)c3)cc(C(=O)O)c2)cc1Cl
 : 6, 133, i, 0.96, 103, /, 1
CCN1/C(=C\C=C2\C(=O)N(C)C(=S)N2C)Sc2ccccc21
 : /, /, i, 1, 95, /, -8
CCc1cc(=S)n2c([nH]c3ccccc32)c1C#N
 : 0, 130, i, 1, 106, /, -3
CCN1C(=O)/C(=C\N(C)C)S/C1=N\S(=O)(=O)c1ccccc1
 : -29, 120, i, 1.2, 95, /, -8
CCOc1ccc(S(=O)(=O)NC2CC2)cc1C(N)=O
 : /, /, i, 1, 102, /, 0
COc1cc(C2CC(=O)c3c(O)cc(O)cc3O2)ccc1O (stereo unspecified)
 : /, /, i, 0.91, 98, /, -9
COc1ccccc1CNC(=O)c1cnn2c(C(F)F)cc(C)nc12
 : -39, 157, i, 1, 96, 1.6, 4
O=C(NN1C(=O)C2C(C1=O)C1C=CC2C12CC2)c1ccncc1 (stereo unspecified)
 : 7, 116, i, 1.1, 102, -0.9, -7
O=C(NCc1cccs1)C(Cc1ccccc1)NS(=O)(=O)c1cccs1 (stereo unspecified)
 : -49, 62, i, 0.74, 103, 2.1, -13
O=C(Nc1ccc(N2CCOCC2)cc1N1CCOCC1)c1cccs1
 : -14, 77, i, 0.81, 115, 0.6, -3
CC(C)c1ccc(/C=N/n2cnnc2)cc1
 : /, /, i, 0.97, 101, /, /
Cc1cccc(CCNC(=O)c2cc(=O)[nH]c3ccc(Br)cc23)c1
 : /, /, i, 1, 104, -1.9, -15
CCS(=O)(=O)N1CCCC(C(=O)NC2CCCC2)C1 (stereo unspecified)
 : 3, 96, i, 1, 99, -2.4, -16
COCCNC(=O)C1CC(c2cccc(F)c2)=NO1 (stereo unspecified)
 : /, /, i, 0.81, 115, /, /
Cn1nc(CSc2ccccc2)c(C=O)c1Cl
 : -45, 96, i, 0.84, 111, /, 1
Cc1[nH]c(C(=O)O)c(C)c1C(=O)OC(C)C
 : -28, 121, i, 0.95, 100, -1.4, 4
CCN(CC)S(=O)(=O)c1ccc(N=Cc2c(C)c(C#N)c(=O)n(C)c2O)cc1
 : /, /, i, 1.3, 102, 0.1, -4
CCOc1ccc(N(CC(=O)O)S(=O)(=O)c2ccc(OC)c(OC)c2)cc1
 : /, /, i, 1, 102, 0.3, -7
COc1ccc(C(=O)n2nnc3ccccc32)cc1Br
 : 29, 133, i, 1.1, 76, -1.1, -4
Cc1cc(NC(=S)NC(=O)CC(C)C)ccc1Br
 : 2, 82, i, 1, 100, 1.0, -2
O=S(=O)(c1ccc(Cl)cc1)N1CCCN(c2nc3ccc(Cl)cc3s2)CC1
 : /, /, i, 1.1, 104, /, /
COc1ccc(N(CC(=O)Nc2ccc(S(=O)(=O)N3CCCCC3)cc2)S(C)(=O)=O)cc1OC
 : -9, 124, i, 0.88, 104, -1.7, 0
CCCCCCCCC(=O)N/N=C(\C)c1ccc(O)cc1O
 : 8, 123, i, 0.96, 28, -0.6, 1
C=CCn1c(Cc2ccc(OC(C)C)c(Cl)c2)nnc1SCC(N)=O
 : 38, 201, i, 1.3, 95, -2.1, -5
Cc1cc2c(C)nc(N/N=C/c3ccc([N+](=O)[O-])cc3)nc2o1
 : /, /, i, 1.2, 101, 3.1, -6
COc1ccc(C2CC(C(F)(F)F)n3nc(C(=O)Nc4c(C)n(C)n(-c5ccccc5)c4=O)c(Cl)c3N2)cc1 (stereo unspecified)
 : -37, 102, i, 0.98, 113, -0.8, -9
O=C(CN1CCCCC1)Nc1ccc(N2CCCCCC2)cc1
 : /, /, i, 1.1, 104, /, -10
CCCN(CCC)CC(O)CN(c1ccccc1)S(=O)(=O)c1ccc(C)cc1 (stereo unspecified)
 : -108, 67, i, 0.83, 105, -3.4, -5
O=C(CCN1C(=O)C2C3C=CC(C3)C2C1=O)NCCc1ccccc1Cl (stereo unspecified)
 : 50, 84, i, 0.93, 97, -0.5, -5
Cn1c(=O)c2c(nc(Cl)n2CC(=O)N2CCCCC2)n(C)c1=O
 : 0, 163, i, 0.91, 108, /, -7
O=C(CCCN1C(=O)/C(=C\c2cccs2)SC1=S)NNC(=O)c1ccncc1
 : -14, 86, i, 0.92, 95, /, -5
Cc1ccccc1OCCCC(=O)NCc1ccco1
 : -113, 130, i, 0.97, 99, -3.4, -5
COc1ccc(OC)c(C2=NOC(C(=O)NCCN3CCOCC3)C2)c1 (stereo unspecified)
 : -60, 70, i, 0.96, 87, -2.0, -6
CC1(C)Cc2c(c(-c3ccccc3)nc3[nH][nH]c(=O)c23)CO1
 : /, /, i, 0.93, 104, -0.6, -6

Next compounds
Order of values – INS promoter inh, INS promoter inh cell count, HSV augment, HSV augment primary fold, RGS16-Gao, GALR2 agonist, PKD1 kinase inh
COc1cccc(CN2CCN(C3CCN(c4cccc(C)c4C)CC3)CC2CCO)c1 (stereo unspecified)
 : /, /, i, 0.97, 105, /, 0
COc1ccc(CC(=O)NNc2ncnc3c2cnn3C)cc1
 : -40, 135, i, 0.98, 102, -0.8, -5
Cc1cc(N)n(-c2ncnc3scc(-c4ccccc4)c23)n1
 : 5, 103, /, /, 95, -0.9, -6
COC(=O)c1ccc(NC(=O)c2ccccc2)o1
 : 41, 92, i, 1.1, 84, -0.3, -3
CCCCOc1ccc([N+](=O)[O-])cc1C(=O)O
 : /, /, i, 0.94, 103, /, -7
Cc1ccc(Nc2c(-c3ccc(N4CCOCC4)cc3)nc3ncccn23)cc1C
 : /, /, /, /, /, -0.9, -4
CC(=O)N/C(=N\OCc1ccccc1Cl)c1nonc1NC(C)=O
 : -31, 231, i, 1, 101, 0.0, 5
Cc1cc(C)nc(N2N=C(C(F)(F)F)CC2=O)n1
 : /, /, i, 0.98, 84, /, /
CCN(Cc1ccccc1)C(=O)c1c[nH]c2ccc(S(=O)(=O)N(C)CCC#N)cc2c1=O
 : 33, 102, i, 0.95, 99, -0.6, -9
CN(c1ccccc1C(=O)N1CCc2ccccc2C1)S(C)(=O)=O
 : -18, 44, i, 0.89, 100, -3.1, -1
CCC1CSC(Nc2ccc(C(=O)/C=C/c3ccc(OC)c(OC)c3)cc2)=N1 (stereo unspecified)
 : 33, 98, i, 0.87, 45, -1.1, 0
CNC(=O)c1ccc(CNC(=O)OCC(F)(F)F)cc1
 : -35, 83, i, 1, 93, -1.8, -5
O=C(Cc1ccccc1)Nc1ccc(N2CCN(Cc3ccccc3F)CC2)cc1
 : -10, 121, i, 0.83, 96, 1.9, 5
Brc1cccc(CSc2nnc(-c3ccncc3)o2)c1
 : /, /, i, 0.86, 97, /, 1
COc1ccc(N2CCN(CCC(N)=O)CC2)cc1
 : /, /, i, 1, 103, -1.5, 5
COCC(=O)OCC(=O)Nc1cc(C(C)(C)C)nn1-c1ccccc1
 : 36, 140, i, 1, 102, -0.5, -3
O=C1C2C3C=CC(C4CC34)C2C(=O)N1CCc1ccccc1 (stereo unspecified)
 : -3, 117, i, 1.1, 131, -1.8, 3
S=c1[nH]nc(CCc2ccccc2)n1-c1ccccc1
 : 22, 112, i, 0.88, 91, -0.6, 1
COC(=O)/C(N=Nc1cccc(C(F)(F)F)c1)=C(\C)O
 : 6, 134, i, 1, 101, -0.8, 4

Some of the entries so far, bar-delimited:
structure | INS promoter inh | INS promoter inh cell count | HSV augment | HSV augment primary fold | RGS16-Gao | GALR2 agonist | PKD1 kinase inh
Cc1cc(C)nc(N2N=C(C(F)(F)F)CC2=O)n1 | / | / | i | 0.98 | 84 | / | /
CC(=O)N/C(=N\OCc1ccccc1Cl)c1nonc1NC(C)=O | -31 | 231 | i | 1 | 101 | 0.0 | 5
O=C1C2C3C=CC(C4CC34)C2C(=O)N1CCc1ccccc1 (stereo unspecified) | -3 | 117 | i | 1.1 | 131 | -1.8 | 3
COc1cccc(CN2CCN(C3CCN(c4cccc(C)c4C)CC3)CC2CCO)c1 (stereo unspecified) | / | / | i | 0.97 | 105 | / | 0
CCC1CSC(Nc2ccc(C(=O)/C=C/c3ccc(OC)c(OC)c3)cc2)=N1 (stereo unspecified) | 33 | 98 | i | 0.87 | 45 | -1.1 | 0
Brc1cccc(CSc2nnc(-c3ccncc3)o2)c1 | / | / | i | 0.86 | 97 | / | 1
